# Compound activity deposited in PubChem BioAssay by National Center for Advancing Translational Sciences (NCATS).
# Methyltransferases = Primary Screen for Target Class Profiling of Small Molecule Inhibitors of Methyltransferases; purified enzyme, MTase-Glo SAH luminescence; active compounds read low; calls only at 40 µM; 3.9% of 25,000 active; AID 1745853, 2022; active = -50% or lower on at least one of six enzymes; inconclusive = the cases between; inactive = as a rule above -30% on all six;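 further: enzymes were COMT GAMT GNMT HNMT NNMT and PNMT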
#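 Each enzyme was reacted with SAM and its substrate, with compounds tested once at 40 uM; SAH formed was read by MTase-Glo luminescence.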
# Calls only; i = inactive; u = inconclusive; + = active, no number. On the % scale 0 is the no-effect control and ±100 the full control effect. Some of the compounds tested; rates above refer to the full screens.
SMILES,Methyltransferases
CCCC1c2ccc(C)n2CCN1C(=O)Nc1cccc(Cl)c1 (stereo unspecified),i
CCC(C)NC(=O)c1ccc2c(=O)n(C)c3nnc(SCC(=O)Nc4ccc(Cl)cc4)n3c2c1 (stereo unspecified),i
COCCCn1c(=O)c(C(=O)NC2CC2)nc2cccnc21,i
NC(=O)c1cnc(NCCc2ccc(O)c(Cl)c2)nc1NCc1ccccc1,+
CCOCCCN1C(=O)c2cc3oc(C)cc3n2CC1(C)C(=O)NC1CCCCCC1 (stereo unspecified),i
Cc1cnc(C2CCOCC2)n1C1CCN(S(=O)(=O)c2ccc3c(c2)OCCO3)CC1,i
Cc1n[nH]c(C)c1CNC(=O)C12CCCC=C1N(Cc1ccccc1)C(=O)CC2 (stereo unspecified),i
Cc1cc(CNS(=O)(=O)c2ccc3c(c2)oc(=O)n3C)c(C)n1-c1ccc(F)cc1,i
Cc1cnc(C2CC2)n1CC1CCNCC1,i
CCCn1c(=O)c2ccc(C(=O)NCC(C)C)cc2n2c(SCC(=O)Nc3cccc(F)c3)nnc12,i
Cc1ccc(S(=O)(=O)c2nnn3c2nc(N2CCC(C(N)=O)CC2)c2cc(Cl)ccc23)cc1C,i
O=C(NCc1ccccc1F)c1ccc2c(=O)nc3c(-c4cccc(F)c4)n[nH]n3c2c1,i
CC(C)c1ccc(NS(=O)(=O)c2ccc3[nH]c4c(c3c2)CCCC4)cc1,i
Cn1cccc1C(=O)N1CC[C@H](CO)[C@H](NC(=O)C2CC2)C1,i
COCc1noc(-c2ccc(NC[C@H]3CCc4ccccc4O3)nc2)n1,i
O=C(Cc1cccs1)N1CCOc2ccc(CN3CCCCC3)cc2C1,u
Cc1ccc(CN2CC(=O)N(Cc3ccc(F)cc3)c3ccccc3S2(=O)=O)cc1,i
CCc1cccc(N2C(=O)c3cc4ccc(OC)cc4n3CC2(C)C(=O)NC2CCCC2)c1 (stereo unspecified),i
C[C@@H]1O[C@@H](O[C@@H]2[C@@H](O)[C@H](O[C@H]3[C@H](O[C@H]4CC[C@@]5(C)C(CC[C@]6(C)C5CC=C5[C@@H]7CC(C)(C)CC[C@]7(C(=O)O[C@@H]7O[C@H](CO)[C@@H](O)[C@H](O)[C@H]7O)CC[C@]56C)C4(C)C)O[C@H](C(=O)O)[C@@H](O)[C@@H]3O)OC[C@H]2O)[C@H](O)[C@H](O)[C@H]1O (stereo partly specified),i
CN(C)c1nc2c(c(N3C[C@@H](CN4CCCC4)[C@@H](CO)C3)n1)CCCC2,+
CCOC(=O)c1cc2n(n1)CC(C)(C(=O)NCc1ccccc1OC)N(Cc1ccc(SC)cc1)C2=O (stereo unspecified),i
COC(=O)c1cc2n(n1)CC(C)(C(=O)NC1CCCCC1)N(c1ccc(F)cc1C)C2=O (stereo unspecified),i
CC1(C)NC(C(=O)O)Cc2c1[nH]c1ccccc21 (stereo unspecified),i
Cn1c(=O)c2ccc(C(=O)NC3CCCCC3)cc2n2c(SCC(=O)NCc3ccccc3)nnc12,i
COc1cccc(CN2C[C@@H]3C(C(=O)O)[C@@H]3C2)c1OCCn1ccnc1 (stereo partly specified),i
SMILES,Methyltransferases
O=C(c1n[nH]c2ccccc12)N1CCCC1c1nc(CCOCC2CCOCC2)no1 (stereo unspecified),i
CCc1ccc(N2C(=O)c3cc4sccc4n3CC2(C)C(=O)NC2CCC(C)CC2)cc1 (stereo unspecified),i
COc1ccc2c(c1)c(NC(C)=O)c1n2CC(C)(C(=O)NC2CCCCC2)N(Cc2ccco2)C1=O (stereo unspecified),i
CC(C(=O)O)C1CCC2(C)C3C(=O)C=C4C(CCC(=O)C4(C)C)C3(C)CCC12C (stereo unspecified),i
COc1ccc(OC)c2c1cc1n2CC(C)(C(=O)NC2CCCC2)N(Cc2ccccc2C)C1=O (stereo unspecified),i
CC(=O)Nc1cc(-c2cc(C(=O)NCc3cccnc3)c3c(c2)N(C)CCO3)ccn1,+
O=C(Nc1ccc2ncnc(N3CCCCC3)c2c1)C1CCCCC1,+
O=[S+]1([O-])NC2(CCCN(Cc3ccc(F)cc3)C2)CNc2ccccc21 (stereo unspecified),u
Cc1ccc(C2=NC3(CCN(C(=O)COc4cccc(C)c4)CC3)ON2)cc1,i
COc1cccc(CNC(=O)Cn2nc3n(Cc4ccc(C)cc4)c(=O)c4ccccc4n3c2=O)c1,i
CCCn1c(=O)c2ccc(C(=O)NC(C)CC)cc2n2c(SCC(=O)Nc3ccc(C)cc3)nnc12 (stereo unspecified),i
CC(C)CCNC(=O)C1(C)Cn2nc(C(=O)NCc3ccc4c(c3)OCO4)cc2C(=O)N1C (stereo unspecified),i
CC1(C)C(=O)N2c3ccccc3C(O)(CC(C(=O)O)n3cnc4ccccc4c3=O)C2N1O (stereo unspecified),i
CCOc1ccccc1CN1C(=O)c2cc3ccccc3n2CC1(C)C(=O)NCCCOC(C)C (stereo unspecified),i
CC(C)CCn1c(=O)c2ccccc2n2c(SCc3ccc(F)cc3)nnc12,i
COc1ccc(C2CC(c3ccccc3)=NN2c2ccc(S(N)(=O)=O)cc2)cc1 (stereo unspecified),i
Cc1ccccc1NC(=O)CSc1nnc2n(C)c(=O)c3ccc(C(=O)NC4CCCCC4)cc3n12,i
CC(C)(C)OCC1CN(Cc2cccs2)[S+](=O)([O-])c2cccnc2O1 (stereo unspecified),i
COc1cccc(CN2C(=O)c3ccc(-c4ccco4)n3CC2(C)C(=O)NC2CCCCC2)c1 (stereo unspecified),i
CCCCN1C(=O)c2cc(C(=O)Nc3ccc(Cl)cc3)nn2CC1(C)C(=O)NC1CCCC1 (stereo unspecified),i
NS(=O)(=O)c1ccc(-n2nc(C(F)(F)F)cc2-c2ccc(Cl)cc2)cc1,i
COCCNC(=O)CCc1nnc2n(Cc3ccc(F)cc3)c(=O)c3ccccc3n12,i
CCn1ccc(C(=O)N2CCc3nc(NC)nc(C(=O)N4CCCC4)c3C2)n1,i
CC(C)S(=O)(=O)N(C)Cc1cccc(N2CCN(C(=O)c3c(Cl)cccc3Cl)CC2)c1F,i
CC1(C(=O)NCc2ccccc2)Cn2c(ccc2-c2ccco2)C(=O)N1c1ccc(F)cc1 (stereo unspecified),i

# Reprinted at random: 6 entries already listed, in no set order.
SMILES,Methyltransferases
COc1cccc(CN2C(=O)c3ccc(-c4ccco4)n3CC2(C)C(=O)NC2CCCCC2)c1 (stereo unspecified),i
CC(C(=O)O)C1CCC2(C)C3C(=O)C=C4C(CCC(=O)C4(C)C)C3(C)CCC12C (stereo unspecified),i
Cc1ccc(C2=NC3(CCN(C(=O)COc4cccc(C)c4)CC3)ON2)cc1,i
CC(C)(C)OCC1CN(Cc2cccs2)[S+](=O)([O-])c2cccnc2O1 (stereo unspecified),i
COc1ccc2c(c1)c(NC(C)=O)c1n2CC(C)(C(=O)NC2CCCCC2)N(Cc2ccco2)C1=O (stereo unspecified),i
CC1(C)C(=O)N2c3ccccc3C(O)(CC(C(=O)O)n3cnc4ccccc4c3=O)C2N1O (stereo unspecified),i

# The listing picks up, starting 5 compounds before the break.
SMILES,Methyltransferases
NS(=O)(=O)c1ccc(-n2nc(C(F)(F)F)cc2-c2ccc(Cl)cc2)cc1,i
COCCNC(=O)CCc1nnc2n(Cc3ccc(F)cc3)c(=O)c3ccccc3n12,i
CCn1ccc(C(=O)N2CCc3nc(NC)nc(C(=O)N4CCCC4)c3C2)n1,i
CC(C)S(=O)(=O)N(C)Cc1cccc(N2CCN(C(=O)c3c(Cl)cccc3Cl)CC2)c1F,i
CC1(C(=O)NCc2ccccc2)Cn2c(ccc2-c2ccco2)C(=O)N1c1ccc(F)cc1 (stereo unspecified),i
CC1CCN(S(=O)(=O)c2ccc3c(ccn3CCC(=O)NCCc3ccccc3)c2)CC1,i
COc1ccc(Br)cc1CNC(=O)c1ccc(N2C(=O)Cn3c(cc4sccc43)C2=O)cc1,i
C=C1C(=O)O[C@@H]2[C@H]3C(C)=CC(=O)C3=C(C)CC[C@@H]12,i
CC(=O)O[C@@H]1C[C@@]23C[C@@]24CC[C@H](OC2OC[C@@H](O)[C@H](O)[C@H]2O)C(C)(C)[C@@H]4CC[C@H]3[C@]2(C)CC3OC4(C[C@@H](C)C3[C@@]12C)OCC1(C)OC14 (stereo partly specified),i
CCOC(=O)c1cc2n(n1)CC(C)(C(=O)NCc1ccccc1)N(c1cccc(Cl)c1C)C2=O (stereo unspecified),i
O=C(NCc1ccc(Cl)cc1)C1CC(=O)N(c2n[nH]c3cccc(F)c23)C1 (stereo unspecified),i
Cc1ccc(Cn2c(=O)c3ccccc3n3c(CCC(=O)NCc4ccccc4)nnc23)cc1,i
O=C(Cn1ccc2cc(S(=O)(=O)N3CCCCC3)ccc21)N1CCCCC1,i
CN(C)CCNC(=O)c1cc2n(n1)CC(C)(C(=O)NC1CCCCC1)N(C)C2=O (stereo unspecified),i
CNC(=O)c1ccccc1Nc1nc(Nc2ccc3c(c2OC)CCCC(N2CCN(CCO)CC2)C3)ncc1Cl (stereo unspecified),+
CN(C)CC(C)(C)CNc1nn2c(-c3ccccc3)nnc2cc1C1CCC1,i
C=C1CCC2C(C)(C)C(O)CCC2(C)C1CCC(C)CCO (stereo unspecified),u
CCOC(=O)CNC(=O)C1(C)Cn2nc(C(=O)OCC)cc2C(=O)N1c1ccc(Cl)cc1 (stereo unspecified),i
O=C(c1cnccn1)N1CCC(c2nc(C3CC3)no2)C1 (stereo unspecified),i
COc1ccc(-c2cc3n(n2)CC(C)(C(=O)NCc2ccccc2)N(CCc2ccc(Cl)cc2)C3=O)cc1 (stereo unspecified),i
COc1ccc(NS(=O)(=O)c2cc3c(cc2Cl)n(C)c(=O)n3C)cc1,i
CN(C)C[C@@H]1CN(c2ccncn2)C[C@H]1NC(=O)COc1ccccc1,i
C=CC1(C)C=C2C(=O)OC(=O)C3=C(CCCC3(C)C)C2(O)CC1 (stereo unspecified),i
CCC(C)NC(=O)c1ccc2c(=O)n(C)c3nnc(SCC(=O)NCc4ccc(C)cc4)n3c2c1 (stereo unspecified),i
CCc1cc2c(cc3n2CC(C)(C(=O)NC2CCC(C)CC2)N(CCCc2ccccc2)C3=O)s1 (stereo unspecified),i
CCC1c2ccc(C)n2CCN1C(=O)Nc1cccc(SC)c1 (stereo unspecified),i
Cc1ccc(NC(=O)Cn2c(=O)oc3cc(S(=O)(=O)N4CCCC4)ccc32)c(Cl)c1,i
OC1(CN2CCC(COc3noc4cccc(O[C@@H]5CCOC5)c34)CC2)CCOCC1,u
Nc1nc2c(ncn2[C@@H]2O[C@H](CO)[C@@H](O)[C@@H]2O)c(=O)[nH]1,i
Nc1nccc(Oc2ccc(NC(=O)c3c[nH]cc(-c4ccc(F)cc4)c3=O)cc2F)c1Cl,+
SMILES,Methyltransferases
CC(C)CCNC(=O)N1CC[C@@H]2COC(=O)N(Cc3ccccc3)[C@@H]2C1,i
COC(=O)c1cc2n(n1)CC(C)(C(=O)NC1CCCCC1)N(Cc1ccccc1OC)C2=O (stereo unspecified),i
CC(C)CCn1c(=O)c2ccccc2n2c(=O)n(CC(=O)Nc3cccc(F)c3)nc12,i
CC(CN1C(=O)c2cc3sccc3n2CC1(C)C(=O)NC1CCCCCCC1)c1ccccc1 (stereo unspecified),i
COc1ccccc1CNC(=O)C1(C)Cn2nc(-c3ccccc3)cc2C(=O)N1Cc1ccccc1 (stereo unspecified),i
O=C(OCC12OC1C=CC(OC(=O)c1ccccc1)C2O)c1ccccc1 (stereo unspecified),i
Cc1ccccc1N1C(=O)c2cc3occc3n2CC1(C)C(=O)NC1CCCC(C)C1C (stereo unspecified),i
Cc1noc(C)c1Cc1ccc(C(=O)NC2CCc3nnc(C)n3CC2)o1 (stereo unspecified),i
CCc1cccc(NC(=O)Cn2nc3n(CC(C)C)c(=O)c4ccc(C(=O)NC(C)CC)cc4n3c2=O)c1 (stereo unspecified),i
O=C(Nc1ccccc1)N1CCC(OCc2noc(C3CCCO3)n2)CC1 (stereo unspecified),i
Cc1cn(CC(=O)N[C@@H]2COCC[C@@H]2OCC2CC2)c(=O)[nH]c1=O,i
Oc1cc(CNC(=S)/C=C/c2cc(O)c(O)c(Br)c2)cc(O)c1O,+
COc1cc(F)c(C(C)C)cc1-c1ccc(C(F)(F)F)cc1CN1C(=O)OC(c2cc(C(F)(F)F)cc(C(F)(F)F)c2)C1C (stereo unspecified),u
Cc1cc2c(cc1S(=O)(=O)Nc1cccc(C)c1C)n(C)c(=O)n2C,i
CCC1c2ccc(C)n2CCN1C(=O)Nc1ccc(C)c(C)c1 (stereo unspecified),i
Cc1ccc(CN2CCOCCNC(=O)[C@H]3CCCC[C@H]32)o1,i
C=C(C(=O)O)[C@@H]1CC=C(CCC(C)=O)[C@@H](C)CC1,u
Cn1nccc1C(=O)N1C[C@@H](F)C[C@H]1C(=O)N1CCCCC1,i
Cc1ccccc1OC1(C(=O)O)CCN(c2ncccc2C(N)=O)CC1,i
CC1(C)CCC(C)(C)c2cc(C#Cc3ccc(C(=O)O)cc3)ccc21,+
CC(=O)O[C@@H]1[C@@H](OC(=O)/C=C/c2ccccc2)[C@H](C)O[C@@H](O[C@H]2[C@@H]3C=CO[C@@H](O[C@@H]4O[C@H](CO)[C@@H](O)[C@H](O)[C@H]4O)[C@@H]3[C@@]3(CO)O[C@@H]23)[C@@H]1OC(C)=O,i
Cn1c(=O)c2ccc(C(=O)NC3CCCCC3)cc2n2c(SCC(=O)c3ccc(F)cc3)nnc12,i
CCC(C)NC(=O)c1ccc2c(=O)n(C(C)C)c3nn(Cc4ccc(Cl)cc4)c(=O)n3c2c1 (stereo unspecified),i
O=C(c1ccc(-c2ccco2)cc1)N1CCOC(c2ccccc2)C1 (stereo unspecified),i
COCC(=O)NC[C@H]1CCN(Cc2cccn2C)C[C@H]1N(C)C,i
CN(C)c1cccc(-c2cnc(Nc3ccc(N4CCOCC4)cc3)c3c2CCO3)c1,i
